High-throughput results (PubChem BioAssay)
Beta cell apopt: blocks beta cell apoptosis | INS-1E cytokine-induced death, ATP luminescence, 48 h; percent of positive-control rescue, neutral wells zero | protection from apoptosis, % (no concentration beside the values) | 0.8% of 300,000 active | AID 435005;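 active = all replicates at 75% or more, or half of them and the mean; inconclusive = half reach 75% but not the mean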;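 also: 0% = cytokine-treated negative control wells and 100% = positive control rescue; higher means more ATP so stronger rescue from cytokine killing; wells of about 40 µL received 100 nL stock; the first replicate is given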
Vif TR-FRET: inhibitors of Vif binding to APOBEC3G peptide, primary screen, biochemical, TR-FRET, GST-Vif 1-94, biotin-A3G peptide, dose response retest (AID 1117319). TR-FRET GST-Vif / biotin-A3G peptide binding; higher % means a stronger effect; test concentration not given here; strong numbers were not always called active. one-dose inhibition, %; IC50 in µM for titrated hits. 0.57% of 260,000 active;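 active = above the screen mean plus three standard deviations and confirmed in dose response; inconclusive = results disagree or hit not tested in dose response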;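 also: Vif residues 1-94 fused to GST binding biotinylated APOBEC3G peptide 110-148; 0% = full assay without inhibitor and 100% = GST in place of GST-Vif; retest series ran down from 100 µM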
A1 inh: inhibitors of the anti-apoptotic protein A1, read as caspase activation | MEF A1-2A-BIM cells, Caspase-Glo 3/7 luminescence, 3 h; percent of clofoctol response, vehicle zero | caspase activation, % (no concentration beside the values) | 0.066% of 330,000 active | AID 2462;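 active = over half of replicate activation scores above 10%, or exactly half above 10 with the replicate mean above 10; inconclusive = replicate mean below 10 yet half the replicates above 10; inactive = over half of replicates below 10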;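 also: wells of about 30 µL received 50 nL stock; many hits fall short of the cut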
LANA-H2A inh: blocks KSHV LANA binding to histone H2A/H2B. AID 2629. inhibition, % (test concentration not listed). 0.6% of 320,000 active. cell-free LANA-H2A/H2B peptide, fluorescence polarization; in the data active = inhibition mostly above about 10%, no sharp cut-off; inactive = mostly below about 6.7%;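 also: stock transfer was 7.5 nL into about 10 µL; 0% = median of vehicle wells and 100% = median of positive control wells; one replicate is shown; the record names a cut of 25% in any replicate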
Target sequence (Q9QR71 whole entry, looked up): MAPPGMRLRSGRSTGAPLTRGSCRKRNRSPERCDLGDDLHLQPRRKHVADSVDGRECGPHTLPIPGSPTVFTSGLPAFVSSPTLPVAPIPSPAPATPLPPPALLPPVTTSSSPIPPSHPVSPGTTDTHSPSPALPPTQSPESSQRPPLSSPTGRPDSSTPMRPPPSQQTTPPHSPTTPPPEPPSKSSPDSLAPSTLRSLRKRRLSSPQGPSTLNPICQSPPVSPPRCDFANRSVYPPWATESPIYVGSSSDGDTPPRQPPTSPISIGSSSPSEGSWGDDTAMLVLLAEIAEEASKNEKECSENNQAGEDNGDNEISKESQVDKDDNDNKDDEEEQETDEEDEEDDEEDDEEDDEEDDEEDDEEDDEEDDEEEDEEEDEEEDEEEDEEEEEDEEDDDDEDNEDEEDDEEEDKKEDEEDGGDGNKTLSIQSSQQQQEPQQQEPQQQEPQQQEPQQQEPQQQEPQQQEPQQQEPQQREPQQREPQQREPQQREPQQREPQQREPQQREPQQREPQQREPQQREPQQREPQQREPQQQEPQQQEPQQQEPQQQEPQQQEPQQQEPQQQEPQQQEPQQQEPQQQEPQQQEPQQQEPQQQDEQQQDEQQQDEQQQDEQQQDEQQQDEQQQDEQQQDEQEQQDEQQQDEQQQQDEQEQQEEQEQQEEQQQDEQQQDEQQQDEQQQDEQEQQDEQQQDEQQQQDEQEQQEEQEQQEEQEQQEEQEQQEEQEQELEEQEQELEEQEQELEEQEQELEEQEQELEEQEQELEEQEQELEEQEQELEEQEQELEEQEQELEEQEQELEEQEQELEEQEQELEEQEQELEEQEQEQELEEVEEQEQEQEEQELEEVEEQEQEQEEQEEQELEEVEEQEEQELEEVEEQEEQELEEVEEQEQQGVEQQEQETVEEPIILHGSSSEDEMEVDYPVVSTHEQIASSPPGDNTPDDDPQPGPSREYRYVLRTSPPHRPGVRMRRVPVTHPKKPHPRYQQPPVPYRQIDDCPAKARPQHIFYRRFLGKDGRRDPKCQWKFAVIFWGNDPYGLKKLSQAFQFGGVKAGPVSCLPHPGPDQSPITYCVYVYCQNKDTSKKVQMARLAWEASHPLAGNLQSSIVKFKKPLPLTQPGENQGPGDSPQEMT
RanGTP-Imp inh: disruptors of Ran-importin-beta complex formation – biochemical, FRET, CFP-Ran, YFP-importin-beta, homogeneous, primary screen | cell-free CFP-Ran/YFP-importin-beta FRET ratio | inhibition, % (concentration not given with the values) | 1.1% of 300,000 active | AID 2216;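 active = most replicates above 15%; inconclusive = exactly half above 15%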;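 also: 0% = DMSO wells and 100% = Ran loaded with GDP instead of GTP; wells of about 40 µL received 100 nL stock; the first replicate is given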
Calb FLC: affects C. albicans growth with fluconazole. growth inhibition, % (test concentration not listed). 0.57% of 300,000 active. C. albicans CaCi-2 (fluconazole-resistant clinical isolate) + fluconazole, Alamar Blue growth, 48 h;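 active = most replicates above 75%; inconclusive = exactly half above 75%; inactive = most below 75%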;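 also: all wells also contain fluconazole at 8 µg/ml as a sub-toxic cotreatment; 0% = median of DMSO wells and 100% = median of geldanamycin control wells; wells of about 8 µL received 7.5 nL stock; the first replicate is given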
AF4-AF9 inh: MLL-AF4/AF9 protein interaction inhibition | 0.47% of 350,000 active | P42568 | inhibition, % at 10 µM | AlphaScreen, biotin-AF4 peptide binding to FLAG-AF9;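 active = every replicate reaching a set inhibition limit, whatever the replicate mean, cut at about 25% in these data; inconclusive = mean inhibition reaches that limit but some replicates miss it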;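 also: 0% = plate neutral control median and 100% = total signal loss; the record names both 10 and 1 µM as test concentration; the first replicate is given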
T cruzi repl: blocks replication of Trypanosoma cruzi. T. cruzi beta-gal in NIH3T3, luminescence, 90 h. inhibition, % (test concentration not listed). 1.4% of 300,000 active. AID 1885;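 active = mean inhibition across valid replicates above about 55%, limit read from the data; inconclusive = mean below that limit but half or more replicates reach it; inactive = mean below it, under half of replicates reach it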;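 also: signal also drops with host cell toxicity which is not excluded here; 0% = plate median of DMSO wells and 100% = zero luminescence signal; higher percent means less beta-gal luminescence so fewer parasites; stock transfer was 50 nL into about 50 µL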
Numbers without * were called inactive; ? = inconclusive; / = no result given. Rows are unselected (roughly 4.3% active in at least one column).

SMILES	Beta cell apopt	Vif TR-FRET	A1 inh	LANA-H2A inh	RanGTP-Imp inh	Calb FLC	AF4-AF9 inh	T cruzi repl
O=C(C1=C[C@@H](c2ccc(C(F)(F)F)cc2)C[C@@H](OCc2ccc(CO)cc2)O1)N1CCN(Cc2ccccc2)CC1	6.5	7.7%	-1.3	1.5	-1.5	-1.8	?	42.2
O=S(=O)(Nc1ccc2nc(-c3ccco3)[nH]c2c1)c1ccccc1	-22.5	-2.5%	-0.4	-3.1	-3.2	1.0	/	-3.4
COc1cccc(C(=O)N2CCN=C2SC)c1	-3.1	-0.6%	0.2	1.7	?	-30.4	-2.3	-17.7
CC(NC(=O)C(=O)NCCC1=CCCCC1)c1ccccc1 (stereo not drawn)	13.8	2.5%	-0.1	1.6	0.5	0.2	-0.4	2.6
O=C(Nc1ccccc1)C(c1ccccc1)c1ccccc1	-0.9	/	-1.2	-5.6	2.3	-7.2	1.5	4.1
COc1ccccc1C(CCNCc1ccc(N(C)C)cc1)c1ccc(OC(C)C)cc1 (stereo not drawn)	113.7*	6.4%	0.5	-3.3	1.8	0.5	73.7*	41.4
O=C(O)c1ccc(Cl)c(NC(=O)C2CCCN2S(=O)(=O)c2cccc3nsnc23)c1 (stereo not drawn)	-7.2	4.8%	-0.2	-7.5	?	?	/	-7.9
CC1(c2ccccc2Cl)NC(=O)N(CC(=O)NCc2ccc3c(c2)OCO3)C1=O (stereo not drawn)	-1.0	3.6%	0.9	5.6	7.0	-16.8	2.8	1.3
O=C(Nc1nc(-c2ccccc2)cs1)C1CCCN(S(=O)(=O)c2ccccc2)C1 (stereo not drawn)	/	2.5%	/	/	6.6	-1.9	/	60.7*
Cc1onc(-c2ccccc2Cl)c1C(=O)NC(=S)Nc1ccc(C(C)C)cc1	3.6	-3.2%	0.0	-0.9	0.0	-10.4	2.3	-15.7
COc1ccc(C(=O)N/N=C2/SCC(=O)N2Cc2ccc3c(c2)OCO3)cc1OC	-2.6	-5.5%	0.1	-0.5	-4.7	3.3	/	-0.2
CCN(CC)C(=O)c1ccc(Nc2nnc(C)c3ccccc23)cc1	/	-4.9%	-0.1	0.4	1.1	-5.6	/	9.3
CC(=O)NC1C(OCCOc2ccc(Cl)cc2C)OC(CO)C(O)C1O (stereo not drawn)	-5.1	-0.8%	0.4	-1.9	1.2	-5.0	1.1	-11.0
COc1ccc(CCNC(=O)CSc2nc3[nH]c(=O)cc(O)c3s2)cc1	-12.6	-14.0%	-0.8	/	/	/	0.4	/
COc1cc(C(=O)Nc2c(C(=O)O)[nH]c3ccc(Br)cc23)cc(OC)c1OC	-0.2	-11.3%	-0.1	0.3	4.8	7.8	0.6	-1.6
COc1ccc(NC(=O)Nc2ccc(CC(=O)O)cc2)cc1	0.7	-7.1%	-0.1	-5.6	2.3	-21.7	-0.6	-11.3
Cc1cc(OCCCn2ccnc2)cc(C)c1Cl	-7.7	4.9%	-0.8	2.4	-0.4	-19.4	/	59.5*
Cn1ccnc1SCC(=O)Nc1ccc2ccccc2c1	-0.5	-1.4%	-2.8	6.9	1.6	12.5	/	2.1
O=C(CN1CCSCC1)N/N=C/c1cccc(Cl)c1	-1.0	/	-0.9	4.5	-0.3	10.6	0.5	4.1
Cc1onc(-c2ccccc2)c1C(=O)OCCOc1cccc(Cl)c1	/	/	0.9	-5.0	2.5	-2.2	-0.6	14.5
COc1cccc(C(=O)Nc2c(F)cccc2F)c1	-2.9	-9.3%	-0.6	-1.5	3.4	3.5	-0.6	-1.5
O=C(CCCCCN1C(=O)CCC1=O)Nc1ccc(Cl)c(C(F)(F)F)c1	1.3	3.93µM*	0.1	1.5	?	-0.1	/	-4.4
O=C(O)COCC(=O)N1CCCN(c2nccc(C(F)(F)F)n2)CC1	-2.4	2.4%	-0.1	4.7	2.4	-4.1	/	-0.9
COC(=O)c1ccc2nc(-c3cccc(N)c3)cn2c1	1.9	-6.9%	-9.0	-2.6	2.5	4.8	0.2	-3.1
COc1ccccc1N(C(=O)CNS(=O)(=O)c1ccccc1)C(C(=O)NCc1ccco1)C(C)C (stereo not drawn)	/	0.2%	/	/	-10.9	-4.3	/	4.2
Remaining list, next part:
SMILES	Beta cell apopt	Vif TR-FRET	A1 inh	LANA-H2A inh	RanGTP-Imp inh	Calb FLC	AF4-AF9 inh	T cruzi repl
Cc1cc(C)n2nc(C(=O)N/N=C/c3ccc(O)cc3)nc2n1	0.3	14.5%	0.2	-1.3	6.9	22.9	-1.1	-11.2
CC1=C(C(N)=O)C(c2cccnc2)n2nc(SCc3ccccc3Cl)nc2N1 (stereo not drawn)	-6.4	2.1%	-0.6	-2.0	-1.2	-0.1	/	-6.5
COc1ccc(CNC(=O)CN(C(=O)CCC(=O)Nc2nccs2)c2cccc(C)c2)cc1	-2.0	0.7%	0.0	-4.0	4.6	37.1	0.5	-0.9
COc1ccc(C(O)P(=O)(OC(C)C)OC(C)C)c(OC)c1 (stereo not drawn)	/	-1.5%	-1.4	-2.4	2.3	2.2	-11.3	-18.0
COC(=O)c1c(NC(C)=O)sc2c1CCCCC2	-6.3	13.8%	1.4	-0.3	-2.0	-2.9	/	1.7
Clc1ccc(-c2ccc(/C=N/Nc3nncc(-c4ccccc4)n3)o2)cc1	-0.8	-4.6%	0.3	4.8	0.1	3.9	/	-22.1
COCC(=O)NNS(=O)(=O)c1ccccc1[N+](=O)[O-]	2.3	/	-0.6	-2.8	2.3	-10.2	/	-10.1
CCOC(=O)N1CCN(C(=O)CN(c2cccc(C(F)(F)F)c2)S(C)(=O)=O)CC1	-3.6	30.3%	1.3	1.7	-3.5	3.5	/	-0.4
O=C(NCCCn1ccnc1)Nc1ccc(Cl)cc1	-4.7	2.0%	-0.2	5.0	-0.6	-11.0	/	15.8
O=C(O)c1ccccc1OC(=O)C12CC3CC(CC(C3)C1)C2	-3.6	-2.7%	-0.1	-2.1	/	-0.1	-5.0	-13.1
Cc1nnc(SCC(=O)Nc2cc(C(N)=O)cc(C(N)=O)c2)n1-c1ccccc1	-11.2	9.3%	-0.3	-4.2	0.9	-1.1	-3.8	2.6
Cc1nn(C)c(C)c1NC(=O)CN1CCC(O)(c2ccc3c(c2)OCO3)CC1	3.2	-1.9%	-0.4	-3.6	5.7	7.3	/	3.4
COc1ccc(CCN2C(=O)CC(N3CCOCC3)C2=O)cc1 (stereo not drawn)	1.0	25.7%	0.1	2.6	4.0	-11.7	/	-33.0
CCOc1cccc(NC(=O)/C(C#N)=C/c2cccnc2)c1	-24.0	0.5%	0.8	-2.3	0.6	45.8	-1.4	-7.0
COc1ccc(C(=O)c2ccc(CC(=O)O)s2)cc1	6.0	-0.3%	-1.4	-4.3	0.4	-4.0	-15.5	-4.2
COC(=O)CN(C)C(=O)c1cccc(OC2CCN(S(=O)(=O)N(C)C)CC2)c1	/	/	-0.2	-0.5	8.6	14.9	0.9	-9.6
O=C(Cc1cccc2ccccc12)N/N=C/c1ccc(Sc2nc3ccccc3s2)o1	-0.9	-6.2%	-0.2	-0.2	-0.1	2.3	/	-3.1
O=C(COC(=O)C1CCN(S(=O)(=O)c2cccs2)CC1)Nc1ccc(F)cc1Cl	-6.8	-10.9%	2.8	-1.4	/	/	-0.2	/
CCOC(=O)c1c(C)n(-c2ccc(C)cc2)c2ccc(OCC(O)CNCC3CCCO3)cc12 (stereo not drawn)	23.5	-11.9%	0.4	-5.5	-1.0	39.7	/	64.1*
CC(NC(=O)c1ccccc1C(=O)O)c1ccc(-n2ccnc2)cc1 (stereo not drawn)	-1.8	/	-0.6	2.1	0.5	1.3	-0.3	-6.8
CCOC(=O)CSC1=NN2CCS(=O)(=O)N=C2S1	-3.1	/	0.6	0.4	2.7	32.6	-0.3	-9.6
CCOc1ccc(C(=O)NCCCCNC(=O)c2ccc(OCC)cc2)cc1	-4.1	/	-0.9	0.7	3.0	-6.6	-18.1	-8.8
CCSc1ccccc1C(=O)Nc1ccc2c(c1)OCO2	-4.8	9.9%	-3.5	-0.9	?	-18.7	-4.1	2.1
CCOC(=O)c1cnc2ccccc2c1Nc1cc(C(=O)O)ccc1C	0.5	/	0.7	-0.4	-0.2	-0.5	-1.0	0.9
COc1cccc(C(=O)Nc2ncc3c(n2)CC(c2ccc(OC)cc2OC)CC3=O)c1 (stereo not drawn)	0.2	8.2%	0.9	-0.6	0.4	24.4	/	-47.1
Additional compounds
SMILES	Beta cell apopt	Vif TR-FRET	A1 inh	LANA-H2A inh	RanGTP-Imp inh	Calb FLC	AF4-AF9 inh	T cruzi repl
Cc1cc(C)n(-c2nc3c(c(=O)[nH]c(=O)n3C)n2Cc2cccc(Br)c2)n1	-1.0	31.8%	0.9	4.0	-1.7	-0.8	/	10.8
OC(CNC1CCCC1)COc1ccc(Cl)cc1 (stereo not drawn)	2.2	3.3%	-0.3	2.2	3.2	-4.9	-10.7	30.1
COCCCNC(=O)c1ccccc1-c1cc(C)no1	-0.6	-3.6%	0.5	-2.9	4.8	22.9	-5.1	-3.8
O=C(NCCOc1ccccc1F)C1CCC(=O)N(CCc2cccc(F)c2)C1 (stereo not drawn)	0.8	/	0.7	-1.8	0.1	-1.3	-3.5	-0.8
COc1ccc(/C=N/NC(=O)c2sc3nc(C)cc(C)c3c2N)cc1	-6.6	/	0.6	5.5	22.8*	0.3	-17.7	-7.7
CCOc1ccccc1NC(=O)CCc1nnc2ccc(NCc3ccco3)nn12	/	/	0.5	-1.0	-0.6	4.6	0.6	14.0
Cc1cc(CNC(=S)Nc2ccc(Br)cc2Cl)nn1C	-1.0	-4.3%	-0.2	-8.1	0.0	-15.1	0.4	-7.8
COc1cc(C#N)c(NC(=S)N2CCOCC2)cc1OC	-4.6	-7.3%	-0.5	3.3	3.8	-1.6	/	-20.2

Reprinted at random: seven records from the list.
SMILES	Beta cell apopt	Vif TR-FRET	A1 inh	LANA-H2A inh	RanGTP-Imp inh	Calb FLC	AF4-AF9 inh	T cruzi repl
COc1ccc(CCNC(=O)CSc2nc3[nH]c(=O)cc(O)c3s2)cc1	-12.6	-14.0%	-0.8	/	/	/	0.4	/
Clc1ccc(-c2ccc(/C=N/Nc3nncc(-c4ccccc4)n3)o2)cc1	-0.8	-4.6%	0.3	4.8	0.1	3.9	/	-22.1
CCOc1cccc(NC(=O)/C(C#N)=C/c2cccnc2)c1	-24.0	0.5%	0.8	-2.3	0.6	45.8	-1.4	-7.0
O=C(O)c1ccccc1OC(=O)C12CC3CC(CC(C3)C1)C2	-3.6	-2.7%	-0.1	-2.1	/	-0.1	-5.0	-13.1
Cc1nn(C)c(C)c1NC(=O)CN1CCC(O)(c2ccc3c(c2)OCO3)CC1	3.2	-1.9%	-0.4	-3.6	5.7	7.3	/	3.4
CCOC(=O)c1c(C)n(-c2ccc(C)cc2)c2ccc(OCC(O)CNCC3CCCO3)cc12 (stereo not drawn)	23.5	-11.9%	0.4	-5.5	-1.0	39.7	/	64.1*
Cc1cc(OCCCn2ccnc2)cc(C)c1Cl	-7.7	4.9%	-0.8	2.4	-0.4	-19.4	/	59.5*
